Assay outcomes from PubChem BioAssay.
TSHR agonist = TSH receptor (human) agonism; 73,000 compounds, 0.48% hits; AID 926; Potency, µM (highest dose often 57.1 µM), without a hit: at the top dose activation, most hits filed as activators; P16473; HEK293-CNG-TSHR cells (CNG channel as cAMP sensor), membrane potential dye, cAMP; active = well fitted activation curve of enough size with the parental cells flat; inconclusive = any curve in the parental cells; inactive = parental cells flat and receptor cells flat or falling; further: potency means the concentration at half of the fitted maximal effect; % of control where 0% means no effect; weak receptor curves with flat parental cells got no call and are not listed
Target sequence (P16473 whole entry, looked up): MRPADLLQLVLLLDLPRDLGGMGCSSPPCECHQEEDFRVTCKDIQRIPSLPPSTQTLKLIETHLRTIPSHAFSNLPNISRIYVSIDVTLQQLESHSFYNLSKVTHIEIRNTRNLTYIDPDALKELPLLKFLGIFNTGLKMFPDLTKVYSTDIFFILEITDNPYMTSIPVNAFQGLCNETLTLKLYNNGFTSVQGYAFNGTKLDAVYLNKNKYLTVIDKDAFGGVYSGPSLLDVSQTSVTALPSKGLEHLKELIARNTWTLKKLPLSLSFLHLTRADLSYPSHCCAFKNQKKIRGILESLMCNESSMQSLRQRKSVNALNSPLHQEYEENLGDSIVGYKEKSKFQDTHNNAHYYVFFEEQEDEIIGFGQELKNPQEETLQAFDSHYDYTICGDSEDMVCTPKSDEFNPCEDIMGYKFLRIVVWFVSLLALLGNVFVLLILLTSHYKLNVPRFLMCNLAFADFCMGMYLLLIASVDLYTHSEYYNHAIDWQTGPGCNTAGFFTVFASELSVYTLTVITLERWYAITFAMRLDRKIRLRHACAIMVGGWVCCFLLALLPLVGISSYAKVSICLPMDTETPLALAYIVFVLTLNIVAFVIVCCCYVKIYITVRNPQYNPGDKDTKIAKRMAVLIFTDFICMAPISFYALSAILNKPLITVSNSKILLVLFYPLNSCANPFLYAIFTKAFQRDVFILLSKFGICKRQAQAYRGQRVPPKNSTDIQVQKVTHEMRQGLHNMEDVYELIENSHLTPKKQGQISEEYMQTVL
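HEK 293 cells stably expressing TSHR and a cAMP-gated CNG channel; parental CNG-only cells as counterscreen. Cells preloaded 60 min with membrane potential dye plus 100 uM RO 20-1724, then compound 30 min; fluorescence read at 590 nm.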
A488 autofl = compound fluoresces in the A488 spectral region; 59,000 compounds, 0.1% hits; compound autofluorescence, A488 spectral region, dye equivalency; hits give high values; max dye equivalency, M; AID 591; active = above 10 nM dye equivalent; inconclusive = 1 to 10 nM; inactive = 1 nM or less; about half of its hits are not listed in these tables;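 further: highest value over a series up to 38 µM; compound alone in buffer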
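Compounds pin-transferred into 100 mM Tris buffer, pH 8.0, incubated 15 min at room temperature, then imaged with 480 nm excitation/540 nm emission filters. Fluorescence converted to Alexa 488 dye-equivalent concentration via an on-plate six-point A488 standard curve.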
Resorufin fluor = compound fluoresces in the resorufin spectral region; Compound fluorescence, resorufin region 547/598 nm, buffer; hits give high values; max dye-equivalent concentration, M; 59,000 compounds, 0.04% hits; active = above 10 nM dye equivalent; inconclusive = 1 to 10 nM; inactive = 1 nM or less; a few of its hits are not listed in these tables; further: highest value over a series up to 38 µM
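Compounds in 100 mM Tris buffer, pH 8.0, incubated 15 min at room temperature, then read with 547 nm excitation and 598 nm emission filters. Fluorescence was converted to dye-equivalent concentration using an on-plate six-point resorufin standard curve.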
A647 fluor = compound autofluorescence in A647 spectral region; AID 592; 59,000 tested, under 10 active; max dye-equivalent concentration, M; Compound fluorescence, A647 channel (570/671 nm), Tris buffer; active means above 1 µM dye equivalent; inconclusive means 0.1 to 1 µM; inactive means 0.1 µM or less;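 further: values scaled relative to a standard on each plate; highest value over a series up to 38 µM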
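Buffer was dispensed, compounds and Alexa 647 standards were pin-transferred, and plates sat 15 min at room temperature. Intensity at 570/671 nm was then converted to dye-equivalent concentration using the plate's A647 standard curve.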
AID923 = qHTS Assay for Allosteric/Competitive Inhibitors of Caspase-1: Spectroscopic Profiling in AFC Spectral Region | compound fluorescence, AFC spectral region (405/520 nm); almost no hit is shown here | Potency, µM (series often up to 57.5 µM), without a hit: at the top dose fluorescence increase, hits mostly activators | 75,000 compounds, 1.1% hits; active means well fitted activation curve with a large enough effect; inconclusive means small, poorly fitted or top-dose-only effect;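 further: potency means the concentration at half of the fitted maximal effect; 0% is about no effect; scaled to a free AFC standard on each plate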
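Titrations up to 57 uM read every 20 sec for 3 min (405/520 nm) with 50 nM caspase 1 and 5 uM Ac-WEHD-AFC, pH 7.5 HEPES buffer. Fluorescence-vs-time intercept gave baseline, scaled against on-plate AFC standard.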
Numbers without * were called inactive; i = inactive; ? = inconclusive; · = no result given; [ ] = another dose, or the depositor's remark.

Under each structure – TSHR agonist, A488 autofl, Resorufin fluor, A647 fluor, AID923
Cc1ccc(S(=O)(=O)NCCC(=O)NCc2ccccc2)cc1
    3.7%, i, i, 3e-09, -1.9%
Cc1nnc(SCCOC(N)=O)n1C
    -0.5%, i, i, 2.3e-09, 0.2%
CNc1ncncc1-c1c(C)noc1C
    -1.7%, i, i, 2.2e-09, -0.3%
Cc1cc(C)c(C#N)c(SCC(=O)NC2CC2)n1
    ·, i, i, ?, ·
CCC(=O)N1CCNC(=O)C1CC(=O)Nc1ccc(C)c(Cl)c1 (stereo not given)
    -1.5%, i, i, 1e-09, 1.0%
CC1CCC(NC(=O)c2ccc(N3CCCC3=O)cc2)CC1 (stereo not given)
    ?, i, i, 6e-09, -1.8%
COc1cc(OC)cc(-c2nnc(SCC(=O)N3CCOCC3)o2)c1
    0.5%, i, i, 2.44e-08, -1.2%
CS(=O)(=O)Nc1cccc(-c2nc(Nc3ccccc3)c3ccccc3n2)c1
    ·, i, i, 1e-09, -3.6%
Cc1cc(S(=O)(=O)Nc2cccc(O)c2)c(C)s1
    1.4%, i, i, 3.5e-09, -0.4%
CCSc1nnc(NC(=O)c2c(-c3ccccc3Cl)noc2C)s1
    6.2%, ·, ·, ·, -0.2%
CN1C(=O)N2CN(C3CCCCC3)CN3C(=O)N(C)C1C23 (stereo not given)
    -0.2%[11.4 µM], ·, ·, ·, 2.0%
Cn1c(Cn2c(=O)sc3ccccc32)nnc1SCC(=O)N1CCOCC1
    3.1%, ·, ·, ·, -0.3%
CCOC(=O)c1c(-c2cccs2)csc1NC(=O)CN1CCOCC1
    ?, i, i, 1e-09, 1.8%
C=CCn1c(SCCC(=O)O)nc2c1c(=O)n(C)c(=O)n2C
    -2.5%, i, i, 6.6e-09, -0.5%
O=C(Nc1cccnc1)c1ccc2snnc2c1
    -2.5%[11.4 µM], i, i, 2.51e-08, 1.4%
COc1ccc(N(CC(=O)NCc2cccs2)S(=O)(=O)c2c(C)nn(C)c2C)cc1
    3.9%, ·, ·, ·, 3.0%
O=C(O)CCC(=O)N1CCc2cc(S(=O)(=O)NCc3cccs3)ccc21
    -1.8%, i, i, 2.96e-08, -0.3%
CCOc1ccc(C(C)=O)cc1COc1ccc(-n2cnnn2)cc1
    13.6%, i, i, 1e-09, -2.1%
COc1ccccc1N1CCN(C(c2cccs2)C(C)NC(=O)c2cccs2)CC1 (stereo not given)
    3.5%, i, i, 3.05e-08, 0.5%
Cc1onc(-c2ccccc2)c1C(=O)Nc1ccc(-c2nnc3n2CCCCC3)cc1
    5.8%, i, i, 1e-09, 1.5%
Cc1ccc(C2CC(c3ccc(F)cc3)Nc3nc(N)nn32)cc1 (stereo not given)
    -0.4%, ·, ·, ·, -1.2%
CC(C)C(=O)Nc1c(C(=O)c2ccc(F)cc2)oc2ccccc12
    ?, ·, ·, ·, 14.9%
CC(=O)Nc1cccc(NC(=O)CSc2nnc(Cc3cccn3C)n2-c2ccc(F)cc2)c1
    -3.0%, i, i, 2.16e-08, 1.9%
CC(C)Oc1cccc(C(=O)Nc2ccc(NC(=O)c3ccco3)cc2)c1
    1.3%, i, i, 1.6e-09, 1.9%
O=C1OCCC1Sc1nnc(-c2ccc(Br)cc2)o1 (stereo not given)
    -4.0%, i, i, 1e-09, -1.2%
N#Cc1ccccc1Sc1ccccc1C(=O)OCC(=O)N1CCN(C(=O)c2ccco2)CC1
    4.2%, i, i, 4.2e-09, -1.4%
CC(C)=CCC(C)(C)CNC(=O)NC1CCCCC1
    ·, i, i, 3.91e-08, ·
CC(=O)c1cc(-c2ccccc2)n(CC(=O)N2CCN(C3CCCC3)CC2)c1C
    7.5%, i, i, 2.1e-09, -0.6%
O=c1oc2ccc(Br)cc2cc1-c1nc2ccccc2o1
    ?, i, i, 1e-09, 7.6%
O=C1C(=O)N(CCN2CCOCC2)C(c2ccncc2)/C1=C(/O)c1ccc2c(c1)OCO2 (stereo not given)
    -2.5%, i, i, 1e-09, 1.0%

Results in TSHR agonist and Resorufin fluor, for some of the entries so far:
| SMILES | TSHR agonist | Resorufin fluor |
| --- | --- | --- |
| O=C1OCCC1Sc1nnc(-c2ccc(Br)cc2)o1 (stereo not given) | -4.0% | i |
| N#Cc1ccccc1Sc1ccccc1C(=O)OCC(=O)N1CCN(C(=O)c2ccco2)CC1 | 4.2% | i |

Additional structures follow:
Under each structure – TSHR agonist, A488 autofl, Resorufin fluor, A647 fluor, AID923
Cn1c(/C=N/n2cnnc2)nc2ccccc21
    -6.7%[11.4 µM], ·, ·, ·, 2.1%
CCN1CCN(CC(=O)Nc2cc(F)ccc2C)CC1
    -0.8%, i, i, 1.5e-09, -1.7%
CCCCNC(=O)NS(=O)(=O)c1ccc(C(=O)OC(C)C)o1
    4.1%, i, i, 2.06e-08, 1.7%
CC1=C(/C=C\C(=O)O)C(C)(C)CCC1
    2.9%[11.4 µM], i, i, 1e-09, -0.1%[11.5 µM]
CCCOc1ccc(/C(O)=C2/C(=O)C(=O)N(CCN(C)C)C2c2ccc(OC)c(OC)c2)cc1 (stereo not given)
    ·, i, i, 6.2e-09, ·
Cc1ccc(Cn2ccc(NC(=O)c3cc(-c4ccc(Br)cc4)on3)n2)cc1
    1.4%, i, i, 6.8e-09, -0.6%
COc1ccc(C)cc1S(=O)(=O)N(C)CC(=O)N1CCCCCC1
    2.0%, i, i, 1e-09, 0.9%
CC(C)CNS(=O)(=O)c1ccc(CCC(=O)Nc2ccc3c(c2)OCO3)cc1
    0.9%, i, i, 1e-09, 1.9%
COc1ccc(C(=O)N(CN2CCCC2=O)c2ccc(C)cc2)cc1
    11.9%, i, i, 5.22e-08, -0.8%
CN1CSC2=C(C#N)C(c3cccc(OCc4ccccc4)c3)CC(=O)N2C1 (stereo not given)
    7.7%, ·, ·, ·, 3.2%
CC(C)(C)n1ncc2c(=O)n(CC(=O)Nc3ccccc3)cnc21
    3.6%, i, i, 1.3e-09, 0.2%
COc1ccc(C(=O)c2c(C)oc3ccc(O)c(CN4CCOCC4)c23)cc1
    16.1%, ·, ·, ·, 1.8%
CCCn1c2c(c(O)c(C(=O)Nc3ccc(OCC)cc3)c1=O)CCCC2
    -0.5%, i, i, 1.6e-09, 2.4%
O=C1NCCCC2c3c(cc(Br)c(O)c3Br)OC12N1CCOCC1 (stereo not given)
    1.8%, i, i, 4.2e-09, -0.6%
O=C(NC1CCCCCC1)c1c(O)c2ccccc2[nH]c1=O
    9.0%, i, i, 2.45e-08, 0.1%
CCOc1ccc(-c2nnc(-c3cccnc3)o2)cc1OCC
    -18.2%, i, i, 5.68e-08, -3.1%
COc1ccc(C(CNC(=O)c2cc(C)oc2C)N2CCOCC2)cc1 (stereo not given)
    ?, i, i, 1e-09, 2.8%
CCN(CC)CCOC(=O)[C@@H](Cc1cccc2ccccc12)C[C@@H]1CCCO1
    -3.6%[25.6 µM], i, i, 1.1e-08, -2.6%[25.7 µM]
COc1ccc(S(=O)(=O)N(C)c2c(C)n(C)n(-c3ccccc3)c2=O)cc1OC
    -2.3%, ·, ·, ·, 0.1%
CCSC(SCC)[C@H](O)[C@@H](O)[C@H](O)[C@H](O)CO
    ·, i, i, 1.67e-08, ·
CCCc1cc(=O)[nH]c(SCc2cc(C(=O)OC)c(C)o2)n1
    ?, i, i, 2.05e-08, 0.0%
COC(=O)c1cccc(COC(=O)c2ccccc2NC(=O)c2ccco2)c1
    ?, i, i, 1.09e-08, -0.1%
CC(=O)NCCNc1nc(-c2ccccc2C(F)(F)F)nc2ccccc12
    ?, i, i, 2.87e-08, -0.2%
CCOc1ccccc1NC(=O)c1cc(CC(C)C)oc1C
    ?, i, i, 1e-09, 0.2%
O=C(Cn1cnc2c(nnn2-c2ccccc2)c1=O)N1CCCc2ccccc21
    ?, ·, ·, ·, -1.4%
COc1ccc(-c2nc(C#N)c(NCc3ccc(C)cc3)o2)cc1OC
    18.0%, i, i, 1e-09, -0.6%
Clc1ccc2nc3ccccn3c2c1
    4.9%, i, i, 1e-09, -0.9%
COCCCNC(=O)C1CCN(c2ncccn2)CC1
    7.6%, i, i, 1e-09, 0.4%
COC(=O)Nc1c(C)n(C)n(-c2ccccc2)c1=O
    5.8%, i, i, 1e-09, 2.1%
Cc1cccc(-c2nnc3sc(-c4ccccc4C)nn23)c1
    ?, i, i, 1e-09, -0.9%
O=c1ccc2cc(S(=O)(=O)N3CCN(c4ccccc4)CC3)ccc2o1
    -5.0%, i, i, 2.84e-08, 0.1%
Cc1nnc(NC(=O)c2sc3ccccc3c2Cl)s1
    0.8%, i, i, 1.15e-08, -0.8%
CC(=O)N1CCN=C1SCc1ccc(Br)cc1
    3.7%, ·, ·, ·, -1.7%
OCC1(C2=NOC(O)(C(F)(F)F)C2)CCCCC1 (stereo not given)
    -2.5%, i, i, 3.14e-08, 0.9%
Cc1ccc(S(=O)(=O)Nn2c(C)ccc2C)cc1
    37.3%, i, i, 1.4e-08, 0.8%
CCCCC(=O)NCc1ccc2c(c1)cc(C)n2C
    -0.7%, i, i, 1.36e-08, 5.3%
COc1cc(-c2noc(C3CCCN(S(=O)(=O)c4cccc(Cl)c4)C3)n2)cc(OC)c1OC (stereo not given)
    14.6%, i, i, 2.07e-08, -1.8%
Cc1csc(SCc2c(C(=O)O)oc3ccccc23)n1
    6.8%, i, i, 2.54e-08, 0.3%
Cc1cc(Nc2ccccc2Br)n2nc(C)nc2n1
    3.1%, ·, ·, ·, -2.3%
O=C(O)Cc1cc2c(s1)CCCCC2
    10.4%, i, i, 5.4e-09, -0.5%
Cn1cccc1Cc1nnc(SCC(=O)Nc2cccc(F)c2)n1-c1ccc(F)cc1
    -10.1%, ·, ·, ·, -3.4%
CCCC1CC(=O)OC1(C)C(=O)CSc1n[nH]c(-c2ccccc2)n1 (stereo not given)
    ·, i, i, 3.8e-09, ·
CCOc1ccc(NC(=O)C2CCC(C)(C(=O)O)C2(C)C)cc1 (stereo not given)
    -4.0%, ·, ·, ·, -1.5%
CC(=O)N1CCC[C@@]2(CCN(Cc3ccc(C#N)cc3)C2)C1
    3.3%, i, i, 2.7e-08, 0.6%
COCCCn1c(SCC(=O)NC2CCCC2)nnc1-c1ccco1
    11.1%, i, i, 2.6e-09, 1.7%
Cc1ccc(C)c(NC(=O)CC(NCCCN2CCOCC2)C(=O)O)c1 (stereo not given)
    -5.7%, i, i, 1e-09, -0.7%
COC(=O)c1ccccc1Nc1ccccc1
    11.7%, i, i, 4.27e-08, -0.2%
O=C(c1cccc(-n2cnnn2)c1)N1CC=C(c2ccccc2)CC1
    9.4%, i, i, 1e-09, 1.4%
COC(=O)[C@H](CCSC)NC(=O)C/C=C\[C@@H](C)CO
    -5.5%[11.4 µM], ·, ·, ·, -0.2%[11.5 µM]
Cn1c(=O)[nH]c2cc3ccccc3cc21
    4.1%, i, i, 1.3e-09, -1.3%

Next section:
Under each structure – TSHR agonist, A488 autofl, Resorufin fluor, A647 fluor, AID923
CC1(C)NC(=O)N(CC(O)CN2C(=O)CCC2=O)C1=O (stereo not given)
    ·, i, i, 5.6e-09, -1.3%
COc1ccccc1-c1cncnc1NCc1cccs1
    ?, i, i, 1.11e-08, 0.0%
COc1ccccc1NC(=O)c1ccc(-c2ccccc2F)o1
    ?, i, i, 1.77e-08, -0.7%
Nn1c(SCC(=O)Nc2ccc(S(=O)(=O)N3CCCC3)cc2)nnc1C(F)(F)F
    7.0%, i, i, 3.3e-09, -0.7%

Only part of the results is shown (hit frequency here may not be typical).
